Screens as filed in PubChem.
TSHR ag: qHTS Assay for Agonists of the Thyroid Stimulating Hormone Receptor. HEK293-CNG-TSHR cells (CNG channel as cAMP sensor), membrane potential dye, cAMP. Potency, µM (titrated, usually from 57.1 µM), without a hit: top-dose activation, hits mostly activators. hit rate 0.48% among 73,000. AID 926, 2007; active = well fitted activation curve of enough size with the parental cells flat; inconclusive = any curve in the parental cells; inactive = parental cells flat and receptor cells flat or falling; further: potency means the concentration at half of the fitted maximal effect; % of control where 0% means no effect; weak receptor curves with flat parental cells got no call and are not listed
Target sequence (P16473 whole entry, looked up): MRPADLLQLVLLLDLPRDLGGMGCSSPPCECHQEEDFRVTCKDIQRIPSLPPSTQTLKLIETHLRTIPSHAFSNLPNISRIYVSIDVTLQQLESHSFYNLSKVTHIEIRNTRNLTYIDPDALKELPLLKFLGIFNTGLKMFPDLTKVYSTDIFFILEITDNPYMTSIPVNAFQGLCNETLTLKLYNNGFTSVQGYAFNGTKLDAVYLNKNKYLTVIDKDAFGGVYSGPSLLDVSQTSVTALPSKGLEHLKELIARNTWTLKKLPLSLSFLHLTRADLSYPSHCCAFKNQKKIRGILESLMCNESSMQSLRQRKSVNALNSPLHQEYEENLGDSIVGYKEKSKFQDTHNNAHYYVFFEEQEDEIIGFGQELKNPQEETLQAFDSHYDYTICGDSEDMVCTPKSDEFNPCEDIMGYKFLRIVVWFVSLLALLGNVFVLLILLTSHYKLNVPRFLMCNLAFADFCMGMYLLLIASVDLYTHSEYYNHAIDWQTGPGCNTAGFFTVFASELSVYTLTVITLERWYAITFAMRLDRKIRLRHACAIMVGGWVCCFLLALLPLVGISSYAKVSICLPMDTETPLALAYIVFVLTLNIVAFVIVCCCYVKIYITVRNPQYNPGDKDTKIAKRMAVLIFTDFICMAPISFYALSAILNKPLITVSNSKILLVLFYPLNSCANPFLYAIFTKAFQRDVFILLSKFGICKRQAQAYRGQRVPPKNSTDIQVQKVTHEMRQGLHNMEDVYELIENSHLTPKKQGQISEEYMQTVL
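HEK 293 cells stably expressing TSHR and a cAMP-gated CNG channel; parental CNG-only cells as counterscreen. Cells preloaded 60 min with membrane potential dye plus 100 uM RO 20-1724, then compound 30 min; fluorescence read at 590 nm.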
A647 autofl: qHTS Assay for Spectroscopic Profiling in A647 Spectral Region. max dye-equivalent concentration, M. 59,000 tested, under 10 active. Compound fluorescence, A647 channel (570/671 nm), Tris buffer; active means above 1 µM dye equivalent; inconclusive means 0.1 to 1 µM; inactive means 0.1 µM or less;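 further: values scaled relative to a standard on each plate; highest value over a series up to 38 µM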
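Fluorescence read (570 nm ex, 671 nm em) after 15 min RT incubation of compounds in 100 mM Tris buffer, pH 8.0; values expressed as dye-equivalent concentration against a six-point A647 standard series on each plate.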
Resorufin autofl: qHTS Assay for Spectroscopic Profiling in Resorufin Spectral Region. Compound fluorescence, resorufin region 547/598 nm, buffer; active compounds read high. max dye-equivalent concentration, M. hit rate 0.04% among 59,000. AID 588, 2007; active = above 10 nM dye equivalent; inconclusive = 1 to 10 nM; inactive = 1 nM or less; a few of its hits are not listed in these tables; further: highest value over a series up to 38 µM
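Read-out: intrinsic compound fluorescence at ex 547/em 598 nm after 15 min at RT in pH 8.0 Tris (100 mM). Values expressed as resorufin-equivalent concentration from per-plate standard series.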
AID923: qHTS Assay for Allosteric/Competitive Inhibitors of Caspase-1: Spectroscopic Profiling in AFC Spectral Region | compound fluorescence, AFC spectral region (405/520 nm); almost no hit is shown here | hit rate 1.1% among 75,000 | Potency, µM (titrated, usually from 57.5 µM), for inactives: at the highest dose fluorescence increase, usual class: activators; active means well fitted activation curve with a large enough effect; inconclusive means small, poorly fitted or top-dose-only effect;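 further: potency means the concentration at half of the fitted maximal effect; 0% is about no effect; scaled to a free AFC standard on each plate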
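Titrations up to 57 uM read every 20 sec for 3 min (405/520 nm) with 50 nM caspase 1 and 5 uM Ac-WEHD-AFC, pH 7.5 HEPES buffer. Fluorescence-vs-time intercept gave baseline, scaled against on-plate AFC standard.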
A488 autofl: qHTS Assay for Spectroscopic Profiling in A488 Spectral Region | hit rate 0.1% among 59,000 | compound autofluorescence, A488 spectral region, dye equivalency; active compounds read high | max dye equivalency, M | AID 591, 2007; active = above 10 nM dye equivalent; inconclusive = 1 to 10 nM; inactive = 1 nM or less; about half of its hits are not listed in these tables;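 further: highest value over a series up to 38 µM; compound alone in buffer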
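Compounds pin-transferred into 100 mM Tris buffer, pH 8.0, incubated 15 min at room temperature, then imaged with 480 nm excitation/540 nm emission filters. Fluorescence converted to Alexa 488 dye-equivalent concentration via an on-plate six-point A488 standard curve.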
An asterisk follows results filed as active; & = joins results of further samples; [ ] = remark or other dose.

`CC(C)c1ccc(N2C(=O)[C@@H]3Cc4ccccc4CN3C2=O)cc1` gave TSHR ag 3.7%, A647 autofl 7.1e-09, Resorufin autofl inactive, AID923 -1.3% and A488 autofl inactive.
For CS(=O)(=O)N1CCC2(CC1)CN(C(=O)Nc1cccc(C#N)c1)C2 the results were TSHR ag 0.4%, A647 autofl 2.93e-08, Resorufin autofl inactive, AID923 1.7% and A488 autofl inactive.
Screening CCOC(=O)c1c(Nc2ccccc2N)cc(C)nc1C returned TSHR ag 3.3%, A647 autofl 1e-09, Resorufin autofl inactive, AID923 -1.7% and A488 autofl inactive.
Screening CCn1nc(C(=O)Nc2ccc(S(=O)(=O)Nc3nccs3)cc2)c2ccccc2c1=O returned TSHR ag 1.7%, A647 autofl 1e-09, Resorufin autofl inactive, AID923 2.3% and A488 autofl inactive.
For O=C(c1ccc2snnc2c1)N1CCN(c2ccccn2)CC1 the results were TSHR ag 2.2% and AID923 4.9%.
`Cc1ccc(-c2nc(CS(=O)CC(=O)N3CCN(c4ncccn4)CC3)c(C)o2)cc1` (configuration not stated) gave TSHR ag 2.6% and AID923 -2.9%.
Screening CCOC(=O)NC1C=CS(=O)(=O)C1 (configuration not stated) returned TSHR ag 0.4%, A647 autofl 1e-09, Resorufin autofl inactive, AID923 -0.4% and A488 autofl inactive.
`Cn1c(=O)c2c(nc(Oc3ccc4c(c3)OCO4)n2Cc2ccc(Cl)cc2)n(C)c1=O` gave TSHR ag inconclusive, A647 autofl 1e-09, Resorufin autofl inactive, AID923 0.8% and A488 autofl inactive.
`Cc1ccc2oc(=O)c3cnn(CC(=O)NCCC(C)C)c3c2c1` gave TSHR ag 15.0% and AID923 -3.1%.
`CN(C)C(=O)c1ccc(-c2cncnc2NCCc2cnc[nH]2)cc1` gave TSHR ag -2.2%, A647 autofl 6.7e-09, Resorufin autofl inactive, AID923 -0.5% and A488 autofl inactive.
CC1(C)CC2CC(C)(CN2C(=O)COC(=O)c2ccc(Cl)cc2N)C1 (configuration not stated) was read as TSHR ag inconclusive, A647 autofl 1e-09, Resorufin autofl inactive, AID923 -0.6% and A488 autofl inactive.
For CC(C)C(=O)N1CCN(c2nc(-c3ccccc3)c3c(c2C#N)CC(C)(C)OC3)CC1 the results were A647 autofl 1.86e-08, Resorufin autofl inactive and A488 autofl inactive.
Screening CC(=O)N1CCC[C@@]2(CCN(Cc3nccs3)C2)C1 returned TSHR ag 2.2%, A647 autofl 4.5e-09, Resorufin autofl inactive, AID923 3.0% and A488 autofl inactive.
For CCOC(=O)c1cc(NC(=O)c2cc(C)on2)cc(C(=O)OCC)c1 the results were TSHR ag 13.4%, A647 autofl 3.94e-08, Resorufin autofl inactive, AID923 -0.1% and A488 autofl inactive.
CCN(CC)C(=O)CN1C(=O)C2CC=C(Cl)CC2C1=O (configuration not stated) was read as TSHR ag -3.3%, A647 autofl 1.3e-09, Resorufin autofl inactive, AID923 0.6% and A488 autofl inactive.
`O=C(Nc1ccc(Cl)cc1)N1CCC(c2nc(-c3ccc(F)cc3)no2)CC1` gave TSHR ag inconclusive, A647 autofl 1e-09, Resorufin autofl inactive, AID923 -0.4% and A488 autofl inactive.
Screening CCc1cc2c(NCc3ccco3)ncnc2s1 returned TSHR ag inconclusive, A647 autofl 2.92e-08, Resorufin autofl inactive, AID923 0.2% and A488 autofl inactive.
Screening COc1ccc(-c2noc(CN(C)S(=O)(=O)c3ccc(Cl)cc3)n2)cc1OC returned TSHR ag inconclusive, A647 autofl 2.16e-08, Resorufin autofl inactive, AID923 0.8% and A488 autofl inactive.
`Nc1ccccc1C(=O)Nc1cccc(C(=O)O)c1` gave TSHR ag -0.4%, A647 autofl 1e-09, Resorufin autofl inactive, AID923 1.4% and A488 autofl inactive.
Screening O=c1c(-c2ccccc2)nc2cncnc2n1-c1ccccc1 returned TSHR ag 9.4%, A647 autofl 5.5e-09, Resorufin autofl inactive, AID923 10.0% and A488 autofl inactive.
CCCC(=O)c1cc(-c2nc3ccccc3n2C)n(C)c1 was read as TSHR ag 3.2%, A647 autofl 2.81e-08, Resorufin autofl inactive, AID923 -1.8% and A488 autofl inactive.
`COc1ccccc1N1CCN(C(c2ccc(C)cc2)c2nnnn2C(C)C)CC1` (configuration not stated) gave TSHR ag inconclusive, A647 autofl 3.1e-09, Resorufin autofl inactive, AID923 -0.6% and A488 autofl inactive.
COc1ccc(C(=O)CSc2nnc(-c3ccccc3)o2)cc1 was read as TSHR ag 10.5%[11.4 µM] and AID923 -0.7%.
`CC(C)(C)n1nc2c(c1NC(=O)c1ccco1)CS(=O)C2` (configuration not stated) gave TSHR ag inconclusive, A647 autofl 2.12e-08, Resorufin autofl inactive, AID923 0.5% and A488 autofl inactive.
Screening CCSc1nnc(-c2cccc(S(=O)(=O)N(CC)CC)c2)n1Cc1ccccc1 returned TSHR ag inconclusive, A647 autofl 2.57e-08, Resorufin autofl inactive, AID923 0.7% and A488 autofl inactive.
`CCN(CC)c1ccc(C=N/C(C#N)=C(\N)C#N)cc1` gave TSHR ag -4.9%[11.4 µM], A647 autofl 2.21e-08, Resorufin autofl inactive, AID923 19.5% and A488 autofl 2.56e-08M*.
Nn1c(SCC(=O)NC(=O)NC2CCCC2)nnc1-c1ccccc1F was read as TSHR ag 7.9%, A647 autofl 1e-09, Resorufin autofl inactive, AID923 0.9% and A488 autofl inactive.
CC(=O)OCC1OC(C#Cc2ccccc2)C=CC1OC(C)=O (configuration not stated) was read as TSHR ag -3.0%&10.9%[11.4 µM] and AID923 0.4%&-0.5%[11.5 µM].
`COc1ccc(C)cc1NC(=O)CN1CCN(S(=O)(=O)c2ccc(C(C)C)cc2)CC1` gave TSHR ag inconclusive, A647 autofl 1e-09, Resorufin autofl inactive, AID923 0.0% and A488 autofl inactive.
For Cc1cc(C)n(-c2nc3ccccc3c(=O)n2OC2CCCCC2)n1 the results were TSHR ag 24.4%, A647 autofl 1e-09, Resorufin autofl inactive, AID923 -2.4% and A488 autofl inactive.
For Cc1ccc(N(CC(O)CN2CCCC2)S(=O)(=O)c2ccccc2)cc1 (configuration not stated) the results were TSHR ag 13.2%[11.4 µM] and AID923 -0.9%.
`Cc1ccc(-c2cc(-c3ccc(Cl)cc3)c(C#N)c(N)n2)o1` gave A647 autofl 3.02e-08, Resorufin autofl inactive, AID923 0.2% and A488 autofl inactive.
For CCSc1nnc(NC(=O)CSc2nc(CC)nc3c2c(=O)n(C)c(=O)n3C)s1 the results were TSHR ag 1.7%[11.4 µM] and AID923 -8.1%.
`O=C(CN1CCCc2ccccc21)NC(=O)NCc1ccco1` gave TSHR ag -10.8%, A647 autofl 1e-09, Resorufin autofl inactive, AID923 0.8% and A488 autofl inactive.
Screening Cc1ccc(-c2nn3c(C)nnc3c3ccccc23)cc1S(=O)(=O)N1CCN(CCO)CC1 returned TSHR ag -13.9%, A647 autofl 1.28e-08, Resorufin autofl inactive, AID923 -0.2% and A488 autofl inactive.
For Cc1ccc(C)c(NC(=O)C2CC(=O)N(C(C)C)C2)c1 (configuration not stated) the results were TSHR ag 3.7%, A647 autofl 7.1e-09, Resorufin autofl inactive, AID923 -1.3% and A488 autofl inactive.
`CCCOC(=O)Cc1c(O)c2ccccc2[nH]c1=O` gave TSHR ag 0.8%, A647 autofl 4.2e-09, Resorufin autofl inactive, AID923 1.1% and A488 autofl inactive.
For Cc1cc(NC(=O)c2cn(C3CCCCC3)c(=O)c3c2c2ccccc2n3C)no1 the results were TSHR ag inconclusive and AID923 4.0%.
`COc1c(C)cccc1C(=O)Nc1ccc(N2CCN(S(C)(=O)=O)CC2)cc1` gave TSHR ag -9.0%, A647 autofl 1e-09, Resorufin autofl inactive, AID923 0.2% and A488 autofl inactive.
For CCOc1ccccc1NC(=O)CSc1nnnn1Cc1ccccc1 the results were TSHR ag inconclusive, A647 autofl 3e-09, Resorufin autofl inactive, AID923 -2.6% and A488 autofl inactive.

Pulled by compound from the entries so far, 4 records:
`COc1c(C)cccc1C(=O)Nc1ccc(N2CCN(S(C)(=O)=O)CC2)cc1` gave TSHR ag -9.0%, A647 autofl 1e-09, Resorufin autofl inactive, AID923 0.2% and A488 autofl inactive.
For Cc1ccc(N(CC(O)CN2CCCC2)S(=O)(=O)c2ccccc2)cc1 (configuration not stated) the results were TSHR ag 13.2%[11.4 µM] and AID923 -0.9%.
Nn1c(SCC(=O)NC(=O)NC2CCCC2)nnc1-c1ccccc1F was read as TSHR ag 7.9%, A647 autofl 1e-09, Resorufin autofl inactive, AID923 0.9% and A488 autofl inactive.
`COc1ccccc1N1CCN(C(c2ccc(C)cc2)c2nnnn2C(C)C)CC1` (configuration not stated) gave TSHR ag inconclusive, A647 autofl 3.1e-09, Resorufin autofl inactive, AID923 -0.6% and A488 autofl inactive.

Next part:
CN(C)C=Nc1ncc2c3ccccc3n(Cc3ccccc3)c2c1C#N was read as TSHR ag inconclusive, A647 autofl 1e-09, Resorufin autofl inactive, AID923 0.5% and A488 autofl inactive.
CCOC(=O)CN1CC23C=CC(O2)C(C(=O)NCc2ccc(C)cc2)C3C1=O (configuration not stated) was read as TSHR ag inconclusive and AID923 -1.2%.
Screening N#CC1=C(N)SC(N)=C(C#N)C1CCC1CCCCC1 returned TSHR ag 4.0%, A647 autofl 1e-09, Resorufin autofl inactive, AID923 4.2% and A488 autofl inactive.
For CC(Sc1nc2c(c(=O)n(C)c(=O)n2C)n1Cc1cc2c(cc1Cl)OCO2)C(=O)O (configuration not stated) the results were TSHR ag 1.5% and AID923 -0.6%.
For CCCNC(=O)OC[C@@H]1O[C@H](CCO/N=C(\C)CCC(=O)OC[C@@H]2O[C@H](c3ccccc3)C=C[C@@H]2Oc2ccc(OC)cc2)C=C[C@@H]1Oc1ccc(OC)cc1 the results were TSHR ag -0.9%[11.4 µM] and AID923 -0.1%[11.5 µM].
For Cc1ccc2c(c1)N(Cc1ccccn1)C(=O)C(C)O2 (configuration not stated) the results were TSHR ag 3.3%, A647 autofl 4.26e-08, Resorufin autofl inactive, AID923 0.8% and A488 autofl inactive.
For CCC(C)n1cnc2c(c1=O)c1nc3ccccc3nc1n2Cc1ccccc1OC (configuration not stated) the results were TSHR ag 25.1%, A647 autofl 8.3e-09, Resorufin autofl inactive, AID923 2.3% and A488 autofl inactive.
`CCOC(=O)CSc1nnc(Cc2cc(=O)[nH]c(=O)[nH]2)n1-c1cccc(OC)c1` gave TSHR ag 1.3%, A647 autofl 5.56e-08, Resorufin autofl inactive, AID923 -0.8% and A488 autofl inactive.
Screening CN(CC(=O)N1CCc2ccccc21)S(=O)(=O)c1cccs1 returned TSHR ag 9.1%, A647 autofl 8.3e-09, Resorufin autofl inactive, AID923 -0.9% and A488 autofl inactive.
`O=C(NCCCN1CCCC1=O)c1cccc(C(F)(F)F)c1` gave TSHR ag -0.8%, A647 autofl 3.2e-09, Resorufin autofl inactive, AID923 -0.6% and A488 autofl inactive.
For CCCN1C(=O)c2cc(C(=O)NC3CCCCCC3)ccc2C1O (configuration not stated) the results were TSHR ag 6.5% and AID923 -0.9%.
Screening Cc1nc2c(-c3ccc(F)cc3)c(C)nn2c(C)c1CCC(=O)NC(C)CCc1ccco1 (configuration not stated) returned TSHR ag 21.2% and AID923 1.0%.
CCn1c(SCC(=O)NCc2cccs2)nnc1-c1cccs1 was read as A647 autofl 1.77e-08, Resorufin autofl inactive, AID923 -1.2% and A488 autofl inactive.
Cc1ccc(CNC(=O)c2cccc(-n3cnnn3)c2)cc1 was read as TSHR ag inconclusive, A647 autofl 5.53e-08, Resorufin autofl inactive, AID923 -1.0% and A488 autofl inactive.
For COc1cccc(CNc2ccc(N3CCCCC3)cc2)c1OC the results were TSHR ag -5.4%, A647 autofl 2.09e-08, Resorufin autofl inactive, AID923 -0.5% and A488 autofl inactive.

This is a subset; count on the stated rates, not on these rows.
